Mtb hypoxia inh – reduces hypoxia-regulated biosensor signal in M. tuberculosis | M. tuberculosis hypoxia-regulated fluorescent reporter, fluorescence | fluorescence inhibition, % (test concentration not listed) | actives 0.1% (n = 300,000);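 active = 35 to 45% if threefold the growth effect, above 45% if 1.5-fold the growth effect; inactive = the rest, general growth blockers included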;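 also: wells of about 50 µL received 100 nL stock; 0% = vehicle wells and 100% = reference inhibitor wells; whole bacteria with a GFP reporter of the hypoxia response; strong numbers were not always called active; many hits fall short of the cut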
Autofluor counter – flagged as autofluorescent in microsphere protease counterscreen; compound autofluorescence counterscreen, microsphere flow cytometry; hits give high values; fluorescence intensity (test concentration not listed); actives 3.1% (n = 360,000);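 active = at least 3 SD above the mean of all compounds, about 16000 in these data; inconclusive = too few beads counted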;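 also: 100 nL of 1 mM stock went into each well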
Sa ugtP lethal – kills S. aureus RN4220 lacking UgtP. S. aureus RN4220 ugtP deletion, OD600 growth, 16 h; some inactives read as strong as hits. growth inhibition, % (no concentration beside the values). actives 0.54% (n = 330,000). AID 1259309;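 active = z-score under -3 and OD600 up to 0.15 on both plates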;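 also: plate controls were untreated wells for no effect and antibiotic for full effect; wells of about 80 µL received 100 nL stock; the first replicate is given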
RN4220 kill – kills Staphylococcus aureus RN4220; inhibition, % (no concentration beside the values); AID 1259311; S. aureus RN4220 growth, OD600, 16 h; actives 0.33% (n = 330,000);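 active = z-score of -3 or lower and OD600 up to 0.18 on both plates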;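 also: plate controls were untreated cells for no effect and reference antibiotic for full effect; stock transfer was 100 nL into about 80 µL; one replicate is shown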
BJeLR viability – BJeLR cell viability loss | BJeLR (HRASV12) viability, CellTiter-Glo ATP luminescence, 48 h; reference of the scale not given here | inhibition, % (no concentration beside the values) | actives 0.17% (n = 300,000) | AID 1554;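 active = replicate mean above 50%; inconclusive = above 50% but judged a plate artefact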;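 also: 50 nL library stock added to about 25 µL; numbers are from one replicate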
PrP UTR inh – suppresses PrP 5' UTR mRNA reporter expression. inhibition, % (no concentration beside the values). actives 0.35% (n = 340,000). cell-based PrP 5' UTR mRNA reporter, plate reader;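 active = every replicate at 50% or more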;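 also: 0 = median of the neutral control wells; tested in H4 reporter cells; numbers are from one replicate; inactives centre near -14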
Mtb hypoxia inh growth – second read-out of Mtb hypoxia inh, no call of its own (marks repeat the call); growth inhibition, %; measured here: M. tuberculosis growth (absorbance);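 0% = vehicle and 100% = reference antibiotic; read after six days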
The depositor's hits bear a star; ? = inconclusive; . = no result given; & = joins results of further samples.

SMILES	Mtb hypoxia inh	Mtb hypoxia inh growth	Autofluor counter	Sa ugtP lethal	RN4220 kill	BJeLR viability	PrP UTR inh
Fc1ccc(CSc2nc3ccccc3[nH]2)c2ccccc12	.	.	2740	-8	-14	-5	0
Cc1cc(=S)nc(-c2ccccn2)[nH]1	-2	-3	4483	17	-2.8	2	-3
O=C(NCc1ccccc1)OCCN1CCN(Cc2ccccc2)CCC1=O	13	1	4199	2	2.1	-9	-15
COc1cc(OC)cc(C(=O)Nc2ccc(-c3nc4ccccc4o3)c(O)c2)c1	2	0	9152	12	-12	0	-7
CC(C)(C)C(=O)Nc1ccc(-c2cnco2)cc1	-3	1	5837	-1	5.2	6	-22
COc1cc(NC(=O)C2CCCN2S(=O)(=O)c2cccc3cccnc23)cc(OC)c1OC (centres undefined)	12	6	5577	2&1	8.4&0.3	1	-5
Cc1ccc(C(=O)NCCNS(C)(=O)=O)cc1	8	8	2604	-7	4.1	6	-4
O=c1cc(Cl)nc2ccccn12	17	13	3461	7	1.7	.	-8
Cc1cc(CCN2CCC(=O)NC2=O)ccc1OC(C)C	10	8	7890	6	4.3	-2	-1
Cc1c(Br)c([N+](=O)[O-])nn1CC(=O)NCc1cccs1	.	.	2188	-5	4.3	-6	-8
Cc1cccc(-c2nnc(SCC#N)n2Cc2ccccc2)c1	8	3	3359	6	4.4	-8	9
CN(C)c1ccc(C(=O)Nc2nnc(-c3ccc(Cl)cc3)o2)cc1	-2	8	4695	1	11	7	-3
COc1ccc(C=NN(C)C2=NCCN2)c(OC)c1OC	11	-12	.	7	3.6	.	.
Cc1onc(-c2c(Cl)cccc2Cl)c1-c1nc2cc(Cl)ccc2c(=O)o1	4	-1	.	14	0.7	.	.
Nc1ccc2oc(-c3ccccc3Cl)cc(=O)c2c1O	5	11	3756	94*	14	-18	-23
Cc1nn(-c2ccccc2)c(C)c1NC(=O)COC(=O)c1ccc(Cl)c(S(N)(=O)=O)c1	3	0	5202	-3	1.4	-1	-19
CCOC(=O)c1sc(C)c2c1NC(c1ccc(N(C)C)cc1)NC2=O (centres undefined)	.	.	2489	-5	-0.3	-1	-10
O=C(Cn1cc([N+](=O)[O-])nc1[N+](=O)[O-])N1CCN(c2ccccc2)CC1	.	.	2481	27	-8.4	2	-9
N#Cc1ccc(/C=N/NC(=O)c2cc(-c3cccs3)nc3ccccc23)cc1	.	.	2520	.	.	7	-33
COc1cc(/C=N/Nc2nc3ccccc3[nH]2)cc(Br)c1OCC(=O)N(C)C	.	.	4619	.	.	10	0
CCOc1ccc(CNC(=O)CCSCc2ccccc2F)cc1OC	-12	-6	3287	-7	-2.0	2	-1
CCOc1ccccc1NC1c2ccccc2C(=O)N1Cc1ccco1 (centres undefined)	2	13	6618	1	2.6	1	-50
CCCCn1ccnc1C(=O)c1cccc(S(=O)(=O)N2c3ccccc3CC2C)c1 (centres undefined)	14	3	2984	4	12	3	-30
NC(=NOC(=O)CC1CCCCC1)c1ccc([N+](=O)[O-])cc1	3	18	.	2	1.8	.	.
CCOC(=O)c1ccc(C(=O)NNC(=O)C2CC=CCC2)cc1 (centres undefined)	-6	4	4307	3	4.5	-7	.

Some of the entries above, set out differently:
molecule,Mtb hypoxia inh,Mtb hypoxia inh growth,Autofluor counter,Sa ugtP lethal,RN4220 kill,BJeLR viability,PrP UTR inh
CCOc1ccc(CNC(=O)CCSCc2ccccc2F)cc1OC,-12,-6,3287,-7,-2.0,2,-1
CCOc1ccccc1NC1c2ccccc2C(=O)N1Cc1ccco1 (centres undefined),2,13,6618,1,2.6,1,-50
CCCCn1ccnc1C(=O)c1cccc(S(=O)(=O)N2c3ccccc3CC2C)c1 (centres undefined),14,3,2984,4,12,3,-30

An excerpt of these results, as comma-separated lines.
SMILES,Mtb hypoxia inh,Mtb hypoxia inh growth,Autofluor counter,Sa ugtP lethal,RN4220 kill,BJeLR viability,PrP UTR inh
O=c1cc(Cl)nc2ccccn12,17,13,3461,7,1.7,.,-8
Cc1cc(CCN2CCC(=O)NC2=O)ccc1OC(C)C,10,8,7890,6,4.3,-2,-1
Cc1c(Br)c([N+](=O)[O-])nn1CC(=O)NCc1cccs1,.,.,2188,-5,4.3,-6,-8
Cc1cccc(-c2nnc(SCC#N)n2Cc2ccccc2)c1,8,3,3359,6,4.4,-8,9

(cont.)
SMILES	Mtb hypoxia inh	Mtb hypoxia inh growth	Autofluor counter	Sa ugtP lethal	RN4220 kill	BJeLR viability	PrP UTR inh
COc1ccc(CNC(=O)COC(=O)CN2C(=O)C(C)Oc3ccc(C)cc32)cc1 (centres undefined)	3	2	3347	9	-2.4	-3	-12
Cc1ccc(OCC(=O)NC(=S)Nc2ccc3c4c(cccc24)CC3)cc1	10	8	2166	-11	-3.7	-6	-20
O=C(OC1CCOC1=O)c1ccc(NS(=O)(=O)c2cccs2)cc1 (centres undefined)	-5	-4	4254	5	3.4	3	-10
O=C(CSc1nc2c(c(=O)n1-c1ccccc1)SCC2)NCC1CCCO1 (centres undefined)	4	-1	3561	3	4.0	6	-22
CC(=O)N1CCN(c2cc(N3CCc4ccccc4C3)c(F)cc2[N+](=O)[O-])CC1	5	4	17226*	-15	1.6	2	-16
CC(C)c1ccc(NC2CCCN(C(=O)CCN3CCCCO3)C2)cc1 (centres undefined)	12	-1	6133	4	-0.9	-17	-15
COc1nc(NCCc2ccc(OC)c(OC)c2)nc(Nc2ccccc2)n1	2	-2	.	-2	6.4	4	-19
CCC(C)(C)C1CCc2[nH]nc(C(=O)NC3CCCCC3)c2C1 (centres undefined)	2	7	4140	19	4.2	.	-47
COc1ccc(NC(=O)c2ccc3c(c2)OCO3)cc1S(=O)(=O)N1CCOCC1	-13	12	3859	-2	0.6	.	7
COc1cc2nc(CN3CCN(S(=O)(=O)c4ccccc4C(F)(F)F)CC3)[nH]c(=O)c2cc1OC	8	9	2937	-1	2.4	.	-20
CCN1C(=O)[C@H]2[C@H]3CN=C(SCc4ccc(C#N)cc4)N3[C@@](C)(C(=O)OC)[C@H]2C1=O	3	7	3665	0	2.5	.	-106
Fc1ccc(CNC(=S)Nc2ccccc2Cl)cc1	2	11	2100	-3	1.6	5	-8
COc1cccc(C=Nn2c(-c3cc(C)[nH]n3)n[nH]c2=S)c1	-1	2	.	-6	-1.2	.	.
Cc1sc2ncnc(OCC(=O)NCC3CCCO3)c2c1C (centres undefined)	1	11	4263	-6	0.9	5	-10
CCOC(=O)N1CCN(c2c(NC3CCN(Cc4ccccc4)CC3)c(=O)c2=O)CC1	8	5	5139	12	2.8	-5	-5
COCCNC(=O)Cn1cc(S(=O)(=O)N2CCN(c3ccccc3F)CC2)c2ccccc2c1=O	8	-8	4485	0	-2.4	5	-26
COC(=O)c1c(O)ccc(Oc2ccccc2)c1C(=O)OC	.	.	2858	-5	0.9	-5	27
O=C(CSc1ccc2c(c1)OCCO2)N1CCN(c2ccccc2O)CC1	1	6	?	4	-2.0	.	-16
NS(=O)(=O)c1ccc(NC(=S)NNC(=O)c2cccs2)cc1	11	18	7104	-5	3.3	-5	-17
O=C1CC2(CCN(C(=O)c3c(F)cccc3Cl)CC2)Oc2ccccc21	10	9	5312	4	4.1	3	-2
CCc1cccc(OCC2Cn3c(nc4c3c(=O)n(C)c(=O)n4C)O2)c1 (centres undefined)	3	12	3149	5	4.5	8	-10
Cc1noc(/C=C/N(C)C)c1S(=O)(=O)N1CCCC(C(=O)NC2CCCCC2C)C1 (centres undefined)	10	6	6072	-2	-12	4	3
CCOC(=O)c1[nH]c2ccc(OCC)cc2c1NC(=O)CN1CCN(c2ccccc2)CC1	.	.	2520	13	0.2	1	-18
CC(C)(O)[C@H]1Cc2cc3ccc(=O)oc3cc2O1	0	2	3842	9	3.5	-7	-26
COc1ccc(NC(=O)C2CCCO2)cc1Cl (centres undefined)	3	8	8041	-1	0.8	3	-28

(next part)
SMILES	Mtb hypoxia inh	Mtb hypoxia inh growth	Autofluor counter	Sa ugtP lethal	RN4220 kill	BJeLR viability	PrP UTR inh
O=C(CCc1ccc(S(=O)(=O)NC2CCCCC2)cc1)NCc1ccccn1	6	3	4786	-2	2.3	-2	-14
CC1CCC(NC(=O)C(Cc2ccccc2)n2cccc2)CC1 (centres undefined)	17	17	4432	4	1.2	0	-12
COc1ccc(N2C(=NC(=O)C3CC3)SC3CS(=O)(=O)CC32)cc1Cl (centres undefined)	-9	-6	5219	-1	-3.1	3	-7
O=C(NC(NC(=S)Nc1c(Cl)cccc1Cl)C(Cl)(Cl)Cl)OCc1ccccc1 (centres undefined)	14	2	2841	-18	42	5	-14
COc1ccc(CNC(=O)NCCc2c[nH]c3ccccc23)cc1	3	7	3677	10	1.3	-5	-24
Cc1ccccc1NC(=O)C(NS(=O)(=O)c1ccc2c(c1)c(=O)n(C)c(=O)n2C)c1ccccc1 (centres undefined)	-1	2	6045	0	1.9	11	-7
CCC(=O)N1N=C(c2c(O)n(C)c(=O)n(C)c2=O)CC1c1ccccc1 (centres undefined)	.	.	3818	-4	17	20	-10
COc1ccc(-c2sc3cc4c(cc3c2C#Cc2ccc(N)cc2)OCO4)cc1	6	16	3600	55	-11	.	-16
O=C1NC[C@H](c2ccccc2)N(CCc2cc(C(F)(F)F)cc(C(F)(F)F)c2)C1=O	.	.	3964	.	.	-3	-7
COc1ccc(OC)c(NC(=O)CCCCCn2nnc3ccccc3c2=O)c1	6	2	2844	9	3.4	-7	-16
COc1cc2c(cc1OC)CN(C(=O)CSc1n[nH]c(N)n1)CC2	.	.	2980	-3	-2.2	0	7
Cn1c(=O)c2c(nc(C=Cc3cccc(Cl)c3)n2C)n(C)c1=O	-5	-6	.	-9	6.6	.	.
CC(C)[C@H](NS(=O)(=O)c1cccc(Cl)c1)C(=O)OCC(=O)N1CCN(c2ccccc2)CC1	-3	7	2421	0	-1.5	-5	-3
Cc1cc(NC(=O)c2noc3c2CCCC3)n(-c2ccccc2)n1	7	8	8448	10	6.0	-11	-7
COc1cccc(CNC(=O)CCC2CCCN(c3cc(C)nc(N)n3)C2)c1 (centres undefined)	-1	9	2199	-4	-3.7	14	-15
O=c1nc2n(c3sc4c(c13)CCCC4)C(CBr)CS2 (centres undefined)	.	.	5880	-9	2.4	5	-11
COc1ccc(OC)c(C(=O)CSc2nnc(Cc3cccs3)n2CCc2ccccc2)c1	3	4	7887	-6	3.0	-3	-9
CCOC(=O)C1(CCOc2ccccc2)CCN(Cc2cnc(C)s2)CC1	4	1	5455	3	1.7	-2	-11
Cn1nc(C(=O)NCCN2CCOCC2)c2ccccc2c1=O	-2	5	11160	5	2.6	-22	-35
Cc1ccc(-c2cc(C(=O)NN=C3CCCC3)c3ccccc3n2)cc1	.	.	3281	-1	1.6	3	-9
COc1ccc(N2C(=O)C(CC(=O)O)S/C2=N\N=C\c2cccs2)cc1 (centres undefined)	.	.	3074	.	.	3	-7
CCOc1ccccc1N=Cc1c(O)c2ccccc2oc1=O	1	2	3905	9	3.6	4	-24
CCOC(=O)Cn1ncc(-c2ccccc2)c1N	-3	-22	5000	-1	4.2	-4	-28
Cc1ccc(S(=O)(=O)N2CCc3c2cc([N+](=O)[O-])cc3[N+](=O)[O-])cc1	-4	6	2734	20	-1.6	-8	-15
COc1ccc(NC(=O)CN(c2cc(C)cc(C)c2)S(=O)(=O)c2c(C)noc2C)cc1OC	.	.	5637	12	3.8	1	-8

(list continues)
SMILES	Mtb hypoxia inh	Mtb hypoxia inh growth	Autofluor counter	Sa ugtP lethal	RN4220 kill	BJeLR viability	PrP UTR inh
c1nc2nc3c(c(N4CCOCC4)n2n1)CCCC3	4	5	4304	3	2.4	-4	-11
Cc1ccc(NC(=O)COC(=O)CNC(=O)c2cccc([N+](=O)[O-])c2)cc1S(=O)(=O)N1CCCCCC1	2	2	2417	-2	9.9	-4	17
Cc1cccc(OCC(=O)NCCNC(=O)c2ccccn2)c1	6	-1	4104	-2	-1.3	2	-9
COc1ccc(NC(=O)CSc2nnc(Cc3cccn3C)n2-c2ccc(F)cc2)cc1	.	.	6217	-11	6.2	-6	6
COc1ccc(-c2n[nH]c(=S)nc2-c2ccc(OC)cc2)cc1	1	7	4192	22	0.2	-5	-29
Cc1ccccc1CC(=O)N1CCCC(CNC(=O)c2ccc(F)cc2)C1 (centres undefined)	12	7	4967	-2	6.3	11	-21
COc1ccc2cc(CCOC3CCCCO3)ncc2c1 (centres undefined)	14	2	2874	-5	-14	.	13
C=CCOC(=O)C1=C(C)NC(SC)=C(C#N)C1c1cccs1 (centres undefined)	.	.	3301	9	3.0	-4	-13

High-throughput results (PubChem BioAssay)
